Screening data: PubChem BioAssay, ICCB-Longwood Screening Facility, Harvard Medical School
Mtb MenB inh: Mtb MenB enzyme inhibition. P9WNP5. MenB enzyme assay, absorbance read-out; some hits fall short of the stated cut. inhibition, %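 (about 12 µg/mL by stock and volumes)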. actives 0.43% (n = 100,000);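 active means mean of two replicates above 30%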;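 further: 0% = no compound and 100% = wells with inactive enzyme; the first replicate is given; strong numbers were not always called active; inactives centre near -10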
PV pol inh: inhibitors of poliovirus RNA polymerase binding and polymerization; P03300; poliovirus polymerase elongation, fluorescence polarization; active compounds read low; % elongation, % (compound at 16.7 µg/mL); actives 0.66% (n = 150,000); AID 588519; in the data active means % elongation below about 90%; further: some results filed as inactive read as strong as hits
Target sequence (P03300 1749-2209 limits assumed): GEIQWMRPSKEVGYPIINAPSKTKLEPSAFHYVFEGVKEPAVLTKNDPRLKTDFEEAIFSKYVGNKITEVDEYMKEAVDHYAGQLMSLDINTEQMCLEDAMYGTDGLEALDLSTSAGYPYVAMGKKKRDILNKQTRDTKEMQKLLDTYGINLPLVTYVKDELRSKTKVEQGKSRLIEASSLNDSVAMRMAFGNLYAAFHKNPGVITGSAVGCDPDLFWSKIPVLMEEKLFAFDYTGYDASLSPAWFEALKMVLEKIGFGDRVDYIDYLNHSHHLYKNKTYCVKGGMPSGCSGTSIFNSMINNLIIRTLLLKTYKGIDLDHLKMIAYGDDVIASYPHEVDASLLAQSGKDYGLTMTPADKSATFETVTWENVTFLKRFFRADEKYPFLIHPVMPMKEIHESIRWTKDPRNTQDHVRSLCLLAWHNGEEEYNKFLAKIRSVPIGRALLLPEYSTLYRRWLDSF
Mtb MbtI inh: blocks the Mycobacterium tuberculosis siderophore enzyme MbtI | P9WFX0 | purified MbtI enzyme, fluorescence intensity read-out | inhibition, %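 (about 17 µg/mL by stock and volumes)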 | actives 0.89% (n = 100,000);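 active means above 50% in both replicates, above 80% if mildly self-fluorescent; inactive means the rest, strongly fluorescent compounds included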;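 further: 0% = mean of negative and 100% = mean of positive controls; one replicate is shown; some compounds called inactive have numbers as strong as hits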
Target sequence (P9WFX0 whole entry, looked up): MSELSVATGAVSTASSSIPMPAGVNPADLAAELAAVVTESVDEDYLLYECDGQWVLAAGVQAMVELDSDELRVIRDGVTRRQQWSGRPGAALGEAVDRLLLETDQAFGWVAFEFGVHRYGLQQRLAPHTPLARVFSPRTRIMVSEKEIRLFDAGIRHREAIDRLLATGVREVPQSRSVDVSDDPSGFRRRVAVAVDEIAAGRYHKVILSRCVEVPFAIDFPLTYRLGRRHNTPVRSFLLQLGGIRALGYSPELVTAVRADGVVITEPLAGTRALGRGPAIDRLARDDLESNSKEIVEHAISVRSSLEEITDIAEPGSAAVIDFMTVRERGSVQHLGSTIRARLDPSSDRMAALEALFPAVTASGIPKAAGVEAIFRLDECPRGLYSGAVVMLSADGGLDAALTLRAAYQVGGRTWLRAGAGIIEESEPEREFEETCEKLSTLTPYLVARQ
PV pol inh intensity: recorded beside PV pol inh, whose call it bears; % elongation; measured here: total intensity read-out; formula for this scale not given here;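 total fluorescence in place of polarization; lower means less elongation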
* hit, by the source's call; i = inactive; . = no result given; & = joins results of further samples. Not a hit list (roughly 1.7% active in at least one column).

SMILES,Mtb MenB inh,PV pol inh,PV pol inh intensity,Mtb MbtI inh
C=CCn1cc(/C=C2\SC(=O)N(C)C2=O)c2ccccc21,-111,103,104,1
O=C(COc1ccc(S(=O)(=O)N2CCOCC2)cc1)NCc1ccccc1,-21,103,104,-9
O=C1c2ccccc2C(=O)C1c1cc(=O)[nH]c2ccccc12,-168,87*,57*,6
COc1ccccc1CNS(C)(=O)=O,-34,107,102,.
COCCn1c(C)cc(C(=O)CSc2nc3ccc(C)cc3[nH]2)c1C,-10,104,109,2
Cc1[nH]c2ccc(C(=O)Nc3ccc4c(c3)OCCO4)cc2c1C,-33,103,93,11
N#Cc1ccc(C(=O)NC2CCC(NC(=O)c3ccc(C#N)cc3)CC2)cc1 (configuration not stated),.,101,101,-11
CC1Cc2ccccc2N1C(=O)COc1ccccc1C#N (configuration not stated),.,104,105,-80
NCC1OC(OC2C(N)CC(N)C(O)C2O[C@@H]2O[C@H](CO)[C@H](O)C2O)C(N)C(O)C1O (some centres not stated),-3,.,.,-8
Cc1nnc(NC(=O)CSc2ncccn2)s1,-10,102,103,-2
COc1ccc(N2CCC(CNC(=O)Nc3ccccc3)C2)cc1 (configuration not stated),9,99,99,0
CC(=O)NC(C(=O)NNc1c(Cl)cc(Cl)cc1Cl)C(C)C (configuration not stated),-12,100,108,11
CCOC(=O)C1CCN(C(=O)C2CCCCC2)CC1,-11,98,102,5
CCN1CCCc2cc(CN(CCN3CCOCC3)C(=S)Nc3c(C)cc(C)cc3C)ccc21,-18,101,99,-5
CC(=O)Nc1c(C)sc(C)c1C(=O)O,11,103,103,13

Continuation.
SMILES,Mtb MenB inh,PV pol inh,PV pol inh intensity,Mtb MbtI inh
COc1ccc(N(C)C(=O)C2CCN(S(=O)(=O)c3cccc4nsnc34)CC2)cc1,-11,101,108,1
Cn1c(-c2ccccc2)c(C(=O)CC#N)c2ccccc21,.,105,113,51
CCOC(=O)C1CCCN(Cc2nc(N)nc(Nc3ccc(Cl)cc3)n2)C1 (configuration not stated),-18,100,95,23
CSc1ccc(CCNC(=O)c2oc3cc4sc(N(C)C)nc4cc3c2C)cc1,-44,104,105,16
Cc1occc1C(=O)N/N=C/C1CCCCC1,-8,101,103,-10
Cc1nn(CCC(=O)NC2CCCC2)c(=O)c2nn(-c3ccccc3)c(C)c12,2,104,105,-28
O=C(NCc1ccco1)c1cc(-c2ccc(Cl)cc2)oc1C(F)(F)F,-1,100,109,7
COc1ccc(S(=O)(=O)N2CCC(n3c(=O)[nH]c4ccccc43)CC2)cc1,8,102,105,-2
CCOC(=O)c1cc2c(s1)-c1c(C)cccc1OC2,1,103,101,116
O=C1c2ccccc2C(=O)c2c1ccc(O)c2O,3,98,97,0
CC1=C(C(=O)OC2CC(C)CCC2C(C)C)C(c2ccc(Br)cc2)n2nnnc2N1 (configuration not stated),-4,103,107,12
CCOC(=O)C(Sc1nncn1-c1ccccc1C)c1ccccc1 (configuration not stated),-36,.,.,-10
CNC(=O)/C(C#N)=C/c1cn(CCOc2ccccc2)c2ccccc12,-243,102,101,-20
O=C(NC1C2CC3CC(C2)CC1C3)c1cccs1 (configuration not stated),-37,101,101,2
CCC(CC)NC(=O)COc1nc2ccccc2nc1C,-1,102,105,72

Additional records
SMILES,Mtb MenB inh,PV pol inh,PV pol inh intensity,Mtb MbtI inh
Cn1c2c(c(=O)n(C)c1=O)CN(CC1CC1)CN2,4,107,111,-4
CCC(=O)Nc1ccc2c(c1)ncn2-c1ccccc1,-95,104,102,28
CS(=O)(=O)c1ccc(Cl)c(NC(=O)CN2CCc3sccc3C2c2cccs2)c1 (configuration not stated),-16,107,107,-7
CCCCn1[nH]c(-c2ccccc2)cc1=O,-167,104,111,-17
CCC(=O)Nc1cccc(-c2nc3ccccc3[nH]2)c1C,24,100,102,90
CCC(=O)N(c1nnc(SCC(=O)c2c(N)n(C)c(=O)[nH]c2=O)s1)C1CC1,-21,102,106,-5
Cc1cccc(-c2nc3scc(CCNC(=O)C(C)(C)C)n3n2)c1,-1,104,105,2
COc1cccc2cc(C(=O)C3=C(O)C(=O)N(CCCN4CCOCC4)C3c3ccc(C)cc3)oc12 (configuration not stated),-25,101,102,2
COc1ccc(CCN2CC(C#N)=C3c4cc(OC)c(OC)cc4CCN3C2)cc1OC,14,102,103,7
C=C(C)CN(CC)c1nc(N)c2c(N)nc3c(c2c1C#N)CC(=O)N3C12CC3CC(CC(C3)C1)C2,-2,102,103,-18
CN(C)c1cccc(N(C)C)c1CNC(=O)Nc1ccc(Cl)cc1,-19,104,102,14
COC(=O)c1cc(OC)c(OC)cc1NC(=O)c1cnc(N(C)C)nc1C(F)(F)F,-5,104,106,-12
O=C(CSC1CC(=O)N(c2ccccc2)C1=O)Nc1ccc(Cl)cc1 (configuration not stated),-25,106,107,2
CC(=O)Nc1c(C)[nH]n(-c2ccccc2)c1=O,1,102,105,-8
CCC(=O)N1CCN=C1SCc1ccccc1,15,101,105,-1

Laid out differently: entries from further up
CCC(=O)Nc1cccc(-c2nc3ccccc3[nH]2)c1C
  Mtb MenB inh: 24; PV pol inh: 100; PV pol inh intensity: 102; Mtb MbtI inh: 90

CC(=O)Nc1c(C)[nH]n(-c2ccccc2)c1=O
  Mtb MenB inh: 1; PV pol inh: 102; PV pol inh intensity: 105; Mtb MbtI inh: -8

Cc1cccc(-c2nc3scc(CCNC(=O)C(C)(C)C)n3n2)c1
  Mtb MenB inh: -1; PV pol inh: 104; PV pol inh intensity: 105; Mtb MbtI inh: 2

CCCCn1[nH]c(-c2ccccc2)cc1=O
  Mtb MenB inh: -167; PV pol inh: 104; PV pol inh intensity: 111; Mtb MbtI inh: -17

(next part)
SMILES,Mtb MenB inh,PV pol inh,PV pol inh intensity,Mtb MbtI inh
COc1ccccc1CN1C(=O)NC2(CCOc3ccccc32)C1=O (configuration not stated),12,100,104,-7
CN1CCN(Cc2cc(Br)cs2)CC1,2,102,103,.
CC(C)(C)C1=C(C#N)C(c2cccs2)C(C#N)=C(NC(=O)NC(=O)c2c(F)cccc2Cl)O1 (configuration not stated),-10,104,103,-7
CN1C(=O)N(C)c2cccc3cccc1c23,-22,104,100,7
N#Cc1c(N2CCCC2)oc2nc3ccccc3nc12,-11,103,97,56
CN(C(=O)CSc1nc(-c2ccccc2)cn1N)C1CCS(=O)(=O)C1 (configuration not stated),-24,102,93,-2
COCCNC(=O)c1cc2c(=O)[nH]c3ccccc3c2s1,-13,99,101,79
O=C(NCC1CCCO1)c1cccc(N2C(=O)C3C4C=CC(C4)C3C2=O)c1 (configuration not stated),-26,103,100,-6
CN1C(=O)C2(NC(=O)c3ccccc3O2)c2ccccc21 (configuration not stated),2,100,107,18
CCN1CCN(Cc2cc(C(C)(C)C)c(O)c(C(C)(C)C)c2)CC1,-38,99,100,-17
COc1ccc(C2CC(SCC(=O)c3ccccc3)=Nc3ncnn32)cc1 (configuration not stated),12,100,102,27
CN1C(=O)CC[C@H]1c1cccnc1,7&19,100&101,99&102,-2&-2
Cc1ccccc1NC(=O)C1CC(=O)OC1(C)C (configuration not stated),-24,99,103,-6
O=C(COc1ccccc1)Nc1ccccc1N1CCCC1,-33,103,102,52
CCN(c1cccc(C)c1)S(=O)(=O)c1c(C)[nH]c(=O)[nH]c1=O,5,99,105,-2

Additional results follow.
SMILES,Mtb MenB inh,PV pol inh,PV pol inh intensity,Mtb MbtI inh
CCn1c(C(=O)N2CCC(C(=O)NC3CCCCCC3)CC2)cc2sccc21,1,102,106,-7
CC(C)Cn1c(O)c(Nc2ccc3c(c2)=NC(=O)N=3)c2ccccc21,6,102,94,i
O=C(CCS(=O)(=O)c1cccc2nonc12)N1CCN(C(c2ccccc2)c2ccc(Cl)cc2)CC1 (configuration not stated),-5,100,101,9
CC(=NCc1cccnc1)c1c(C)[nH]n(-c2nc3ccccc3s2)c1=O,34*,98,100,8
CC1=C(C#N)C(c2cc(F)ccc2F)C(C(=O)OCc2ccccc2)=C(N)O1 (configuration not stated),-13,107,108,.
OC(Cn1cnc2ccccc21)Cn1c2ccccc2c2ccccc21 (configuration not stated),-36,100,100,36
C(=N\N1CCOCC1)/c1ccccn1,-30,104,111,18
Nc1nonc1OCc1ccc2c(c1)OCO2,-6,102,100,.
C/C(=N\O)c1ccc2c(c1)CCO2,6,103,115,-15
CCOC(=O)c1cnn(-c2ccccc2)c1-c1ccncc1,2,98,104,1
COc1ccc(CNCc2ccc(C)cc2)cc1,14,102,97,6
C/C(=N\NC=O)c1ccccn1,-30,105,94,9
Cc1c2cnn(CC(=O)NCCCN3CCOCC3)c(=O)c2c(C)n1Cc1ccccc1F,-7,105,103,4
CC(=O)OCc1ccc(/C=C/C(=O)O)o1,-37,.,.,25
O=C(/C=C/c1ccco1)N1CCN(S(=O)(=O)c2ccccc2)CC1,-23,100,105,7

Limited to PV pol inh (2 entries from above):
| canonical_smiles | PV pol inh |
| --- | --- |
| CC1=C(C#N)C(c2cc(F)ccc2F)C(C(=O)OCc2ccccc2)=C(N)O1 (configuration not stated) | 107 |
| OC(Cn1cnc2ccccc21)Cn1c2ccccc2c2ccccc21 (configuration not stated) | 100 |

More compounds follow:
SMILES,Mtb MenB inh,PV pol inh,PV pol inh intensity,Mtb MbtI inh
CCN1C(=O)Cc2cc(S(=O)(=O)N3CCOCC3)ccc21,25,102,101,-1
O=C(O)C1CCCN(S(=O)(=O)c2ccccc2)C1 (configuration not stated),-26,101,100,10
O=C(/C=C/c1cccs1)N1CCN(C(=O)/C=C/c2cccs2)CC1,4,101,106,-6
CCOC(=O)C(Cc1ccccc1)C(=O)Nc1ccc(OC)cc1 (configuration not stated),-18,100,103,-3
CSc1nc(NCCCO)c(C#N)c(-c2ccccc2)n1,-34,104,98,-49
CCOC(=O)c1ccc(C[N+]2(C)CCOCC2)o1,.,99,98,-7
COC(=O)c1sccc1OC(=O)c1nn(-c2ccccc2)nc1C,-14,103,104,-6
O=C(Nc1nccs1)c1ccc(F)cc1,.,103,103,-7
CCCc1ccc(OCc2ccc(C(=O)NCc3cccnc3)o2)c(OC)c1,-12,108,104,.
CCCCNC(=O)c1cc(S(=O)(=O)N(C)C)oc1C,-11,103,103,-5
COc1ccc(S(N)(=O)=O)cc1C(=O)OCc1cn2cc(Cl)ccc2n1,-11,108,125,-15
C/C(N)=C(/C#N)C(=O)COc1ccccc1F,-18,.,.,1
Cc1ccc(-c2cc(N)n(-c3ccccc3)n2)cc1,.,99,100,2
O=C(CSc1nnc(-c2ccncc2)n1-c1ccccc1)NC(=O)NC1CCCC1,-91,101,102,-7
O=c1[nH]c2ccc(NC(=S)Nc3ccccc3)cc2[nH]1,-20,100,102,24

Going on with the list.
SMILES,Mtb MenB inh,PV pol inh,PV pol inh intensity,Mtb MbtI inh
CCCCSC1=C(C#N)C(=O)NC(CO)S1 (configuration not stated),-11,102,100,6
CCN(CC)S(=O)(=O)c1ccc2c(c1)nc(CCC(=O)OCCOc1ccc(C)cc1)n2C,-53,102,107,15
COc1ccc(N2CCN(CCNc3ncnc4onc(C)c34)CC2)cc1,-4,100,101,0
N#Cc1ccc(Cl)cc1N=Cc1ccc2ncccc2c1,.,100,100,-6
CCC(O)(c1ccccc1)C(CN1CCOCC1)c1ccccc1 (configuration not stated),-2,103,104,-3
CCC(=O)N1C(c2ccccc2)=C(C)Sc2nnc(C)n21,-39,102,106,-8
Cc1csc(NC(=O)C(C)(C)Br)n1,.,102,108,-3
CC1Oc2ccccc2OC1=O (configuration not stated),-4,103,101,-2
O=C(Nc1ccc(Oc2ccccc2)cc1)c1ccccn1,-27,108,111,3
CSc1ccc(NC(=O)C(C)N2CCN(C)CC2)cc1 (configuration not stated),-30,100,97,0
CCN(CC)c1c(S(=O)(=O)c2ccccc2)cnc2cc3c(cc12)OCCO3,-31,105,100,-6
O=CN1CCN(S(=O)(=O)c2ccc(S(=O)(=O)NC3CC3)cc2)CC1,-21,102,103,-6
Cc1ccccc1CCN(Cc1cc2c(C)ccc(C)c2[nH]c1=O)C(=O)c1cnccn1,-22,100,104,-8
